Source: PubChem
H5N1 antiviral – antiviral screen in MDCK cells, H5N1 avian flu; cytopathic effect, luminescence, 72 h; hits give high values; no value below 0 was filed and about half of the inactive calls have no number; reference of the scale not given here; inhibition, % at 50 µM; 96,000 compounds, 0.07% hits; AID 740; in the data active = inhibition above about 25%
* hit, by the source's call; i = inactive.

SMILES | H5N1 antiviral
O=C(O)CCC(=O)OC1CC2CCC1C2 (stereo unspecified) | 0.1
Cc1c(NC(=O)COC(=O)Cc2ccc(Cl)cc2)c(=O)n(-c2ccccc2)n1C | 0.6
Clc1ccccc1C1SCC2Nc3ccccc3CN21 (stereo unspecified) | 1.6
Cc1cccc(N(C(=O)Cn2nnc3ccccc32)C(C(=O)NCc2ccco2)c2ccncc2)c1C (stereo unspecified) | 0.1
O=C1NC(c2ccco2)Nc2sc3c(c21)CCN(Cc1ccccc1)C3 (stereo unspecified) | 3.2
COCCN(C(=O)Cc1cccs1)C(C(=O)NCc1ccc(OC)cc1)c1ccc(OC)cc1 (stereo unspecified) | 1.0
C=CCSc1nnc2c(n1)OC=Nc1ccccc1-2 | i
CN(C(=O)CSc1nnc(-c2ccncc2)n1C)C1CCS(=O)(=O)C1 (stereo unspecified) | i
O=C(O)CCn1c(SCc2cccc3ccccc23)nc2ccccc21 | i
NS(=O)(=O)c1ccc(NC(=O)CSc2ccc3ccccc3n2)cc1 | 0.1
CC(=O)c1cccc(NC(=O)/C(=C\c2ccco2)NC(=O)c2cccs2)c1 | i
c1ccc(CCN2CN=C(Nc3nc4ccccc4o3)NC2)cc1 | i
CCOc1ccc(C(=S)NC2CCCCC2)cc1 | i
CC(Oc1cccc(Cl)c1)C(=O)Nc1cc(=O)n(C)c(=O)n1C (stereo unspecified) | 1.2
CCn1c(=O)cc(O)c2ccccc21 | i
C/C(=N\N1CCN(C2c3ccccc3-c3ccccc32)CC1)c1ccncc1 | i
COc1ccc(-c2c(NC(C)=O)n(C)c3ccccc3c2=O)cc1 | i
COc1ccc(S(=O)(=O)n2cnc3cc(C)c(C)cc32)cc1 | 0.5
CCOc1ccccc1C(=O)Nc1ccc(S(=O)(=O)N2CCOCC2)cc1 | 1.0
Nc1ccn(-c2ccc(Cl)cc2)c(=O)c1 | i
O=C(COC(=O)CCN1C(=O)c2ccccc2C1=O)Nc1ccc(S(=O)(=O)N2CCCC2)cc1 | i
O=C1NCC(O)=C1C=NCCCO | i
CCCCCn1c(=O)[nH]c2cc(C(=O)NCCCN(CC)CC)ccc2c1=O | i
Cc1cc(C(=O)Nc2sc3c(c2C#N)CCC(C)C3)no1 (stereo unspecified) | i
CCOC(=O)N1CCN(C(=O)CSc2nnc(-c3ccc(C)c(C)c3)o2)CC1 | 1.2
O=C(CNC(=O)c1ccco1)NCC(=O)OCc1cccc(Cl)c1 | i
O=C(c1ccc2c(c1)OCO2)N(CC1CCCO1)C1(C(=O)NC2CCCC2)CCCCC1 (stereo unspecified) | 0.2
COc1cccc(N2CC(C(=O)Oc3ccc4ccccc4c3)CC2=O)c1 (stereo unspecified) | 0.9
CCNC(=O)NC(=O)C(C)Sc1nc2cc(C(=O)OC)ccc2c(=O)n1-c1ccccc1 (stereo unspecified) | i
CCCC(=O)Nc1c(-c2cccs2)c(=O)c2ccccc2n1C | 2.3
CCCN1C(=O)c2cc(C(=O)NCc3ccc(OC)cc3)ccc2C1O (stereo unspecified) | 0.5
Cc1ccc(-c2[nH]nc3c2C(c2cccnc2)C(C#N)=C(N)O3)cc1 (stereo unspecified) | i
COc1ccc(C(=O)Oc2cc(/C=N/NS(=O)(=O)c3ccccc3)ccc2OC)cc1 | i
CCn1c(SCC(=O)NC(=O)NCc2ccco2)nc2sc(C)c(C)c2c1=O | 3.2
Cc1cccc2cc(COC(=O)COc3ccccc3)c(=O)[nH]c12 | 0.9
CCOC(=O)C(CCCOc1ccccc1)C(=O)OCC | i
COC(=O)c1ccc(NC(=O)CCNS(=O)(=O)c2cccc3nonc23)cc1 | 1.4
CC(=O)Nc1cccc(N(C)C)c1 | 0.7
Cc1ccc(S(=O)(=O)C(C#N)c2nc3ccccc3nc2N2CCN(C)CC2)cc1C (stereo unspecified) | 1.7
O=C(Oc1ccc2ccccc2c1)c1ccccc1 | 0.3
CCOC(=O)c1cnn2c1[nH]c(=O)c1ccccc12 | i
c1ccc2c(c1)nc(NCCN1CCOCC1)c1nncn12 | 2.3
Cc1c(OCC(=O)OC(C)(C)C)ccc2c3c(c(=O)oc12)CCC3 | 1.1
Cc1ccc(/C=C2\OC(=O)c3ccccc32)cc1 | i
COc1ccccc1N1CCN(C(=O)C2CCCO2)CC1 (stereo unspecified) | 0.5
C/C(=N\NC(=O)c1c[nH]c2ccccc12)c1ccc(C)o1 | 0.6
O=C(CCCNS(=O)(=O)c1ccccc1)NCc1ccco1 | i
Cc1ccnc2nc(C(=O)OCCOc3cccc(Br)c3)nn12 | 0.3
Cc1oc(-c2ccc(Cl)cc2)nc1CN1CCCC(C(=O)NCc2ccccn2)C1 (stereo unspecified) | i
COc1cc(CN2CCC(C(=O)N3CCC(C)CC3)CC2)cc(Br)c1O | i
COc1cc(C(=S)N2CCOCC2)cc(OC)c1OC(=O)c1cc([N+](=O)[O-])cc([N+](=O)[O-])c1 | i
CCN1CCc2c(sc(N)c2C#N)C1 | 1.8
Cc1ccc(CS(=O)(=O)CCC(=O)NCCCN2CCCC2=O)cc1 | i
CCOC(=O)CSC1=C(C#N)C(c2ccc(C)s2)CC(=O)N1 (stereo unspecified) | i
CCOCC(=O)N1CCN(c2ccc(F)cc2)CC1 | i
Clc1ccc(OCc2nnc(-c3ccccc3Br)o2)c(Cl)c1 | i
O=C(CSC1c2ccccc2-c2ccccc21)N/N=C/c1ccccc1O | i
Cc1noc(C)c1C(=O)N1CCN(Cc2ccc3c(c2)OCO3)CC1 | 0.5
CC1CCCCN1Cc1ccc(-c2nn[nH]n2)cc1 (stereo unspecified) | i
COc1ccc(N=C2NN=C(c3ccc4c(c3)OCCO4)CS2)cc1 | i
(next part)
SMILES | H5N1 antiviral
O=C(CCN1C(=O)C2CC=C(Cl)CC2C1=O)Nc1ccccc1O (stereo unspecified) | i
Cn1c(C(=O)N2CCCC(C(=O)NCc3ccc4c(c3)OCO4)C2)cc2sccc21 (stereo unspecified) | 0.4
COc1ccc(C2Nc3ccccc3C(=O)N2Cc2ccccc2)cc1Cn1nnc2ccccc21 (stereo unspecified) | 0.1
COc1ccc(-c2nnc(SCc3ncc(-c4ccccc4)o3)o2)cc1 | 0.5
CN1C(=O)C(O)(c2sc(N)nc2-c2ccccc2)c2ccccc21 (stereo unspecified) | i
FC(F)(F)c1cc(-c2ccco2)nc(-n2nnc3ccccc32)n1 | 1.1
O=C(COC(=O)c1cc(S(=O)(=O)N2CCOCC2)ccc1O)NCCc1ccccc1 | 0.4
CN1CCN(c2ccccc2NC(=O)c2ccc(-c3ccccc3)cc2)CC1 | 0.3
CCc1c(C)sc(NC(=O)c2cc(-c3ccc(OC)c(OC)c3)on2)c1C#N | i
CCNS(=O)(=O)c1ccc2c(c1)n(C)c(=O)n2C | 0.9
Cc1ccc(Nc2cc(C)nc3nnnn23)cc1 | 1.4
Cc1cccc(N(CC(=O)Nc2ccccc2F)S(C)(=O)=O)c1 | i
NC(=O)C1(N2CCCCC2)CCN(CC(=O)Nc2ccc(Oc3ccccc3)cc2)CC1 | i
CS(=O)(=O)N1CCN(c2ccccc2NC(=O)c2ccco2)CC1 | 0.5
CC(=O)c1c(N2CCOCC2)nc(=S)n(-c2ccccc2)c1C | 0.1
O=C(Cn1cnc2c(nnn2-c2cccc(Cl)c2)c1=O)N1CCCC1 | i
CNC(=S)N1N=C(c2ccccc2)CC1c1ccc(Br)cc1 (stereo unspecified) | 0.2
Cc1cc(C)c2ccc(C(=O)O)nc2c1O | i
CC(=O)NC1CC2CCCC(C1)N2S(=O)(=O)c1cccc(F)c1 (stereo unspecified) | i
O=C(Nc1ccc(-c2cn3ccccc3n2)cc1)c1ccc(Cl)cc1 | 1.7
CCCC(=O)Nc1ccc(Cl)c(NC(=O)CC)c1 | i
Cc1nn(Cc2cccc(F)c2)c(C)c1NC(=O)c1ccc(COc2ccccc2Cl)cc1 | i
Cc1ccc(C)c(N=C2NC(=O)CS2)c1 | 0.1
CC1(C)Cc2nc3nc(SCC(=O)NCc4ccccc4)n(-c4ccccc4)c(=O)c3cc2CO1 | 0.1

2 entries from above, tab-delimited:
molecule	H5N1 antiviral
Cc1ccc(C)c(N=C2NC(=O)CS2)c1	0.1
CC1(C)Cc2nc3nc(SCC(=O)NCc4ccccc4)n(-c4ccccc4)c(=O)c3cc2CO1	0.1

Remaining list, next part
SMILES | H5N1 antiviral
Cc1onc(-c2ccccc2)c1C(=O)Oc1cccnc1 | i
CCCCOC(=O)C(C)Nc1n[nH]c(=S)[nH]c1=O (stereo unspecified) | 0.1
O=C(CSc1nnnn1-c1ccc(F)cc1)Nc1nc2ccccc2s1 | 0.2
CC(=NCCN1CCOCC1)c1c(O)n(C2CCCCC2)c(=O)[nH]c1=O | 0.4
CC(=O)c1cnc2nc(C(F)(F)F)nn2c1C | 0.4
COCCNC(=O)CN1C(=O)CSc2ncccc21 | i
COC(=O)C(CCSC)NC(=O)CNS(=O)(=O)c1ccc(Cl)cc1 (stereo unspecified) | 0.1
O=C(NCc1ccco1)c1cc2ccccc2o1 | 0.1
COc1cc(/C=c2\sc3nc(-c4ccncc4)nn3c2=O)ccc1OC(C)=O | 1.5
CC(/C=N/NC(=O)c1ccncc1)=C\c1ccc(C(C)C)cc1 | i
O=C(NCC1CCCO1)C1CCCN(S(=O)(=O)c2cccc3nsnc23)C1 (stereo unspecified) | 0.1
CC(C)(C)c1cc(CCC(=O)N2CCNCC2)c(C(C)(C)C)cc1O | i
Cc1sc2ncnc(NCCN3CCOCC3)c2c1C | 0.8
O=C1C=C(NCc2ccccc2)C2(CCCCC2)O1 | i
O=C1Nc2ccccc2C(O)(C(=O)N2CCCCC2)N1c1ccccc1 (stereo unspecified) | i
N#Cc1c(NCCCO)nc(NCc2ccccc2)c2c1CCN(Cc1ccccc1)C2 | i
CCN(CC)CCn1c(=N)n(CCOc2ccccc2)c2ccccc21 | i
Cc1c(NC(=O)c2cc(-c3cccs3)on2)c(=O)n(-c2ccccc2)n1C | i
CO/N=C(/CS(=O)(=O)c1ccc(Br)cc1)c1ccc(OC)cc1 | 0.4
Cc1cc(C)n(C(=O)c2ccncc2)n1 | i
COc1cc(NS(=O)(=O)c2cccc3nsnc23)c(C(=O)O)cc1OC | 0.3
CC(Sc1nnc(C2CCCCC2)n1N)C(=O)NCc1ccc2c(c1)OCO2 (stereo unspecified) | 0.1
O=C1Nc2ccccc2OC1CC(=O)N1CCCC1 (stereo unspecified) | 1.3
COC(=O)CSc1nnc(-c2ccoc2C)n1-c1ccc(OC)cc1 | 0.4
CCCC(=O)c1cc2ccccc2oc1=O | 0.9
CN1CCN(C(=O)c2cc(-c3ccco3)on2)CC1 | 1.5
COc1ccccc1C(=O)N/C(N)=N/c1nc2ccccc2o1 | 0.2
Cn1ncc(N)c1C(=O)Nc1cccc(C(F)(F)F)c1 | i
Cc1ccccc1NC(=O)CCC(=O)OCC(=O)c1ccc(-c2ccccc2)cc1 | i
CCn1c2ccccc2c2nc3ccccc3nc21 | i
COC(=O)NCc1ccc2c(c1)OCO2 | 0.3
COc1cccc(N2CCN(C(=O)Nc3ccc4c(c3)NC(=O)CO4)CC2)c1 | 1.9
COc1ccc(OCCNS(=O)(=O)c2ccccc2)cc1 | 0.2
CCCCc1ccc(NS(=O)(=O)N(C)C)cc1 | 0.3
COc1ccccc1N(O)C1CC(=O)N(c2ccc(Br)cc2)C1=O (stereo unspecified) | i
O=C1CN(C(=O)COC(=O)c2ccccc2NC(=O)c2ccco2)c2ccccc2N1 | 0.5
Cc1cc(C)c2c(c1)/C(=N/NC(=S)Nc1ccc(F)cc1)CCC2 | 0.6
O=c1cc(CO)oc(CN2CCN(c3cccc(C(F)(F)F)c3)CC2)c1O | 6.6
COc1ccc(Cl)cc1C(=O)NCC#N | i
CCN(CC)c1ccc(/C=N/Nc2nc(C)cc(=O)[nH]2)cc1 | 0.9
O=C(Nc1ccc(C(=O)N2CCCCC2)cc1)c1ccc(Br)cc1 | 0.1
Cc1cccc(NC(=O)C2C(C(=O)O)C3C=CC2C32CC2)c1C (stereo unspecified) | 0.3
O=C(c1ccccc1)C1CCc2occc2C1=O (stereo unspecified) | 0.1
S=C(c1ccc(N2CCCC2)cc1)N1CCCCC1 | i
CCOC(=O)c1cn(CC(=O)Nc2ccc(C(C)C)cc2)nn1 | 0.8
N/C(=N\OC(=O)c1ccccc1Cl)c1ccccn1 | i
COc1ccc(C2=CC(c3ccc(C)cc3)n3nnnc3N2)cc1 (stereo unspecified) | i
CC(NC(=O)CCOc1ccccc1)c1ccccc1 (stereo unspecified) | 0.8
Cc1ccc(C(O)c2cccnc2)o1 (stereo unspecified) | i

In the list so far, 2 contain a tert-butyl group:
SMILES | H5N1 antiviral
Cc1c(OCC(=O)OC(C)(C)C)ccc2c3c(c(=O)oc12)CCC3 | 1.1
CC(C)(C)c1cc(CCC(=O)N2CCNCC2)c(C(C)(C)C)cc1O | i

Compounds listed so far with bromine:
SMILES | H5N1 antiviral
Cc1ccnc2nc(C(=O)OCCOc3cccc(Br)c3)nn12 | 0.3
COc1cc(CN2CCC(C(=O)N3CCC(C)CC3)CC2)cc(Br)c1O | i
Clc1ccc(OCc2nnc(-c3ccccc3Br)o2)c(Cl)c1 | i
CNC(=S)N1N=C(c2ccccc2)CC1c1ccc(Br)cc1 (stereo unspecified) | 0.2
CO/N=C(/CS(=O)(=O)c1ccc(Br)cc1)c1ccc(OC)cc1 | 0.4
COc1ccccc1N(O)C1CC(=O)N(c2ccc(Br)cc2)C1=O (stereo unspecified) | i
O=C(Nc1ccc(C(=O)N2CCCCC2)cc1)c1ccc(Br)cc1 | 0.1

The list is partial; count on the stated rates, not on these rows.
